# Bioassay records deposited in PubChem by several laboratories.
# Ecoli growth = inhibitors of Escherichia coli growth; AID 1053175; OD600, 23 h; active compounds read low; 0.21% of 330,000 active; OD600 absorbance (concentration not given with the values);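 active = OD600 absorbance below the run mean of sample wells minus 3.6 SD, in any replicate, cut at about 0.56 in these data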;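 note: stock transfer was 300 nL into about 60 µL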
# FGF22 binding = FGF22 (human) thermal shift binding; calls only at 9.99 µM; 1.5% of 340,000 active; recombinant FGF22 thermal shift, SYPRO orange fluorescence; percent of sucrose octasulfate shift, DMSO zero;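 active = melting point raised past a set limit in the mean and every replicate; three in four hits are not shown here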
# LANA-H2B inh = blocks KSHV LANA binding to histone H2A/H2B; cell-free LANA-H2A/H2B peptide, fluorescence polarization; inhibition, % (concentration not given with the values); 0.6% of 320,000 active; AID 2629; in the data active = inhibition mostly above about 10%, no sharp cut-off; inactive = mostly below about 6.7%;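 note: stock transfer was 7.5 nL into about 10 µL; 0% = median of vehicle wells and 100% = median of positive control wells; one replicate is shown; the record names a cut of 25% in any replicate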
# ALR inh = human ALR oxidase inhibition via reduced H2O2. purified ALR, DTT oxidation, H2O2 HRP-luminol luminescence. P55789. AID 485317. inhibition, % (no concentration beside the values). 3.8% of 290,000 active;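 active = mean and each replicate at 75% or more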;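 note: stock transfer was 7.5 nL into about 7.5 µL; 0% = neutral wells and 100% = wells with inactivated enzyme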
# Target sequence (P55789 whole entry, looked up): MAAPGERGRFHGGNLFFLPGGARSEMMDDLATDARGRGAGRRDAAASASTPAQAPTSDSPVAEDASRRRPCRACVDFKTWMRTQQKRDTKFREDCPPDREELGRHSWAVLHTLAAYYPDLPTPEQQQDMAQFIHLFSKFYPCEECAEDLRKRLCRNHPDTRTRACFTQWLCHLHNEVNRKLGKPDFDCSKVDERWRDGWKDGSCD
# HNF4A DNA FP = change in binding of human HNF4 alpha to DNA | HNF4a-FITC DNA binding, fluorescence polarization, 1 h | activity change, % at 10 µM | 0.3% of 360,000 active | AID 1224865; in the data active = activity change above about 30%, passing the limit was not always enough;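 note: controls were the assay level and a saturating level of protein; the project sought stronger binding though the title names inhibitors; some compounds called inactive have numbers as strong as hits; positive values seem to mean higher polarization but the record does not say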
# UCH37 inh = blocks the human deubiquitinase UCH37 | purified proteasome/UCH37, Ub-AMC cleavage fluorescence | 0.33% of 330,000 active | Q9Y5K5 | inhibition, % (test concentration not listed) | AID 588478;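 active = mean of two replicates above 20%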;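 note: 0% = compound-free wells with enzyme and 100% = wells lacking proteasome; stock transfer was 100 nL into about 20 µL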
# Target sequence (Q9Y5K5 whole entry, looked up): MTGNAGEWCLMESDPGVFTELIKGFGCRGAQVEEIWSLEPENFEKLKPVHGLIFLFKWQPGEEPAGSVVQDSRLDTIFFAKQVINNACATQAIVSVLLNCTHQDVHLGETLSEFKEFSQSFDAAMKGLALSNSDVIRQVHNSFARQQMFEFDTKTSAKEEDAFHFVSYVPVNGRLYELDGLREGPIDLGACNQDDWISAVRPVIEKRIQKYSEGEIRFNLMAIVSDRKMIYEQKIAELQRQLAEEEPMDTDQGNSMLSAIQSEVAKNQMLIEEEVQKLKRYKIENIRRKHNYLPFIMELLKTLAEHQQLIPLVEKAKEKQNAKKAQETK
#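 Material: Human UCH37 enzyme supplied as purified proteasome complex | Schedule: 30 min preincubation with enzyme, 25 min cleavage at room temperature | Detection: AMC fluorescence 355/460 nm | Measure: % inhibition of Ub-AMC cleavage fluorescence | Controls: Wells without proteasome as full block, compound-free enzyme plus substrate as uninhibited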
# B2AR ag = activates human beta-2 adrenergic receptor causing internalization; response, % (no concentration beside the values); 0.43% of 340,000 active; Am2.2-beta2AR cells, FAP receptor internalization, flow cytometry; reference of the scale not given here; P07550;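 active = response above a set limit, near 3 SD of response in nonfluorescent compounds, cut at about 42% in these data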;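 note: stock transfer was 100 nL into about 11 µL; a reference agonist was the positive control; negative values mostly stem from fluorescent compounds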
# Target sequence (P07550 whole entry, looked up): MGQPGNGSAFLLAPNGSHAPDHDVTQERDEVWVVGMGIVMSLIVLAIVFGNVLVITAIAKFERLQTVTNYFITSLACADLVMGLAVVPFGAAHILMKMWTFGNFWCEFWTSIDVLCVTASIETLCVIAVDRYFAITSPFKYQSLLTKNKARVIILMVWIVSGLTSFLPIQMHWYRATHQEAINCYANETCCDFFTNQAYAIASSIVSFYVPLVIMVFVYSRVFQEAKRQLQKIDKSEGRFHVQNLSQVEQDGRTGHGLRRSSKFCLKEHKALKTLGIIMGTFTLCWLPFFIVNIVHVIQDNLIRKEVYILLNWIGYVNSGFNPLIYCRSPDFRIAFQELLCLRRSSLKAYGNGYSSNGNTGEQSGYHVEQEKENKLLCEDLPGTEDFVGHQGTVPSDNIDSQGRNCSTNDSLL
# Numbers without * were called inactive; i = inactive; x = no result given. A portion of the library, so the mix of outcomes need not match the whole.
ALR inh	B2AR ag	HNF4A DNA FP	LANA-H2B inh	structure	Ecoli growth	UCH37 inh	FGF22 binding
x	-10.5	-7.4	x	CC(Sc1n[nH]c(=O)n1Cc1ccccc1)C(=O)NCC1CCCO1 (centres undefined)	0.671	0.7	i
3.0	4.3	-4.1	-0.9	Cc1cc(C)n(CCNC(=O)C2CCC(=O)N(CC3CCCCC3)C2)n1 (centres undefined)	0.687	1.9	i
-25.8	-15.6	0.3	4.7	CC1(C)CC(=O)C=C(Nc2ccc(O)c(C(=O)O)c2)C1	0.647	-3.2	i
-30.0	4.2	2.9	2.2	COCCCNC(=S)N(CCCO)Cc1cc2cc3c(cc2[nH]c1=O)OCO3	0.711	-100.8	i
-1.7	1.0	-1.7	-6.9	Cc1ccc(Cn2nc(C)c(NC(=O)c3noc4c3CCCCC4)c2C)cc1	0.712	0.6	x
x	16.1	-3.1	2.6	O=C1/C(=C/c2cccc(F)c2)Oc2cc(O)ccc21	0.596	-58.3	i
x	-3.0	1.2	0.3	CC(=O)c1ccc(OCCCC(=O)Nc2cccc(S(=O)(=O)N3CCCCC3)c2)cc1	0.674	3.0	i
-0.5	16.6	0.3	-6.5	O=C(CSc1nc(C2CC2)nc2sc3c(c12)CCCC3)NCc1ccco1	0.693	0.7	x
-4.2	-7.2	-0.5	5.5	CCN(CC)S(=O)(=O)c1cccc(N=NC2=C(O)CCCC2=O)c1	0.714	12.1	x
1.1	7.8	0.1	-1.8	CC(C)(C)c1ccc(C(=O)Nc2cnccn2)cc1	0.67	7.0	x
17.5	1.7	1.2	-1.1	CC(C)N1CCN(Cc2nc(-c3ccccc3)cs2)CC1CCO (centres undefined)	0.707	4.2	x
1.5	1.2	0.6	-4.1	O=C(C1CCN(CC2CC=CCC2)CC1)N(CCc1ccccc1)Cc1ccccc1 (centres undefined)	0.774	4.7	i
-16.0	10.6	-1.4	-0.8	NC(=O)C1CCN(CC(=O)Nc2ccc(S(=O)(=O)N3CCOCC3)cc2)CC1	0.63	3.2	i
20.5	3.9	-1.8	-3.3	Nc1nnc(SCC(=O)NC2CCCCCC2)s1	0.58	3.0	i
-8.5	-15.4	4.5	3.3	CN1CCN(c2nnc(-c3ccccc3)c(-c3ccccc3)n2)CC1	0.65	4.7	i
0.1	1.2	0.7	0.2	COCC(C)NC(=O)CSc1nc2cc(S(=O)(=O)N3CCCCC3)ccc2o1 (centres undefined)	0.654	-0.8	i
1.6	2.8	2.5	1.3	COc1ccccc1N1CCN(Cc2cc(=O)c(OCC(=O)NC3CCCC3)co2)CC1	0.679	1.2	i
1.4	-2.0	-1.1	-130.9	COc1ccc(C(=O)O)cc1S(=O)(=O)Nc1ccccc1C(=O)NCc1ccc2c(c1)OCO2	0.656	-1.7	i
58.9	5.3	-1.6	-5.3	CC(NCc1ccc([N+](=O)[O-])cc1)C1COc2ccccc2O1 (centres undefined)	0.686	-0.2	i
22.9	7.4	2.6	-0.7	CN1CCN(C2=C(Cl)C(=O)N(c3ccc(Cl)cc3)C2=O)CC1	0.694	6.0	x
-8.0	4.1	-0.8	-3.5	O=C(COc1ccccc1)Nc1ccccc1N1CCN(c2ccccc2)CC1	0.74	3.5	x
5.0	-6.3	-1.4	0.5	COc1ccc(C2CC2/C(=N/O)c2ccccc2)cc1 (centres undefined)	x	x	i
-1.4	-4.9	-3.1	8.0	Cc1ccc(CNC(=O)C2CCCN(S(=O)(=O)c3c(C)noc3C)C2)cc1 (centres undefined)	0.686	3.0	x
-1.4	-3.1	0.8	-1.9	CCC(=O)N(Cc1ccco1)c1nc(-c2ccc(OC)cc2)cs1	0.758	-1.5	x
-8.2	1.7	-3.0	1.2	Clc1ccc(-c2nnc(C3CC3)o2)cc1	0.65	3.7	i
-17.0	-0.1	-5.7	-1.4	CC(=O)c1ccc(N2CCN(CCC#N)CC2)c(F)c1	0.686	0.6	x
0.9	1.1	4.2	5.4	COc1ccc(N2CCN(C(=O)c3[nH]c4ccc(OC)cc4c3C)CC2)cc1	0.671	-2.6	i
-6.9	-0.1	-1.7	-1.4	Cc1ccc(S(=O)(=O)N2CCN(C(=O)CN3CCOCC3)C2)cc1	0.646	0.6	x
3.8	-1.3	-0.4	7.1	O=C(O)C1CCCCC1C(=O)NCCc1c[nH]c2ccccc12 (centres undefined)	0.701	1.2	x
0.4	12.2	1.4	-14.3	Cc1cccc(C(=O)c2ccccc2C(=O)O)c1	0.673	3.3	i
x	-1.0	1.8	-2.0	CCN(CC(O)Cn1c2ccccc2c2ccccc21)S(=O)(=O)c1ccc(C)cc1 (centres undefined)	0.727	3.7	x
-4.2	-2.9	2.7	-3.9	CCOc1ccc(N(C(C)C(=O)N2CCOCC2)S(C)(=O)=O)cc1 (centres undefined)	0.637	1.0	i
-3.6	5.1	0.5	4.9	Cc1ccc(CSc2ncccc2C(=O)O)cc1	0.686	2.2	x
-8.2	3.7	0.3	-1.4	CC(C)N1CCC(N2CCN(Cc3cc(F)ccc3-n3cccn3)CC2CCO)CC1 (centres undefined)	0.703	-0.6	i
-7.5	-3.6	4.8	0.2	Cn1c(CNc2nc3ccccc3n2CCN2CCCCC2)nc2ccccc21	0.684	0.7	x
-1.9	-1.9	2.2	1.9	CN(Cc1ccccc1)S(=O)(=O)c1ccc(OCC(=O)N2CCOCC2)cc1	0.666	3.1	x
26.4	3.2	3.0	2.8	COc1ccccc1NS(=O)(=O)c1ccc(C)c(C(=O)N2CCCC2)c1	0.677	-0.7	i
-6.0	3.2	1.4	-1.4	COCCNC(=O)c1cc2sccc2n1C	0.636	4.4	i
98.6*	3.8	-0.5	-0.6	CCOC(=O)Cc1cc(=O)n2[nH]cc(-c3ccc(Cl)cc3)c2n1	0.631	-191.2	i
-5.9	-0.4	-0.9	-2.7	CCOc1ccc(NC(=O)CN(C)S(=O)(=O)c2cnc[nH]2)cc1	0.654	1.3	i
0.5	-4.4	-1.2	-4.4	CCc1nn(CCCC(=O)NCc2ccccc2Br)c(=O)c2cc3occc3n12	0.681	3.4	i
x	-1.4	0.0	x	COC(C[C@@H]1O[C@H]1[C@H](O)COCc1ccccc1)OC	x	1.0	i
-3.9	-15.1	1.4	-0.4	COc1ccc2nc(NC(=O)c3ccco3)sc2c1	0.63	-38.2	i
-7.3	-7.3	1.4	8.0	COc1ccc(-c2oc3cccnc3c2C#CCO)cc1	0.626	-196.8	x
-9.2	-3.0	1.7	-4.0	Cc1ccccc1OCC(=O)N1CCCCCCC1	0.664	1.4	i
x	5.2	3.2	x	CCOC(=O)c1c(NC(=O)C(C)OC(=O)C2=COCCO2)sc2c1CCCC2 (centres undefined)	0.687	1.8	x
x	11.3	1.7	-3.7	COc1ccc(-c2ccc(N(C)C)cc2)cc1[C@H]1[C@@H]2C=CCC[C@@]2(C)C(=O)N1Cc1ccccc1	x	3.1	i
5.6	-11.8	3.1	1.0	COC(=O)c1sc(NC(=O)c2c(C)noc2C)nc1C	0.705	5.9	i
x	0.0	-0.2	-3.3	Cc1ccc(CNC(=O)C2CCC(=O)N2Cc2ccc(F)cc2)cc1 (centres undefined)	0.694	-1.3	i
18.8	-10.8	-0.4	-2.4	O=C(NCCc1csc(-c2ccccc2)n1)c1ccc(Br)o1	0.77	6.8	i

# Following part:
ALR inh	B2AR ag	HNF4A DNA FP	LANA-H2B inh	structure	Ecoli growth	UCH37 inh	FGF22 binding
x	3.3	-4.6	4.2	O=C(Cc1ccccc1F)NC1CCCN(Cc2ccc(Cl)cc2)C1 (centres undefined)	0.634	3.6	i
-5.1	-0.1	-3.6	-2.3	COC(=O)[C@@H]1C[C@H]2CC[C@H](O)C[C@H]2N1Cc1ccc(N2CCN(C)CC2)cc1	x	0.7	i
-10.0	7.8	-0.5	-1.9	COc1cc(OC)c2ccc(=O)oc2c1C(CCN1CCN(c2ccccc2)CC1)c1ccc2c(c1)OCO2 (centres undefined)	0.676	-3.1	i
28.6	0.5	-3.1	1.6	CCOC(=O)N1CCC2(CC1)C(C#N)=C(N)Oc1n[nH]c(C)c12	0.675	2.3	x
x	7.3	7.3	-0.8	Cc1ccc(C(=O)CCC(=O)Nc2cc(C)ccn2)cc1	0.654	1.9	i
-2.2	-5.5	-0.4	1.6	CC1CCN(C(=O)C2CCCN(S(=O)(=O)c3cccc4nsnc34)C2)CC1 (centres undefined)	0.648	7.2	i
-12.0	-0.8	2.7	3.9	Cc1ccc2oc(C(=O)Nc3ccc(S(=O)(=O)Nc4ncccn4)cc3)c(C)c2c1	0.731	-7.5	i
-5.7	-0.9	4.1	2.4	OC(CCc1ccncc1)c1ccccc1 (centres undefined)	0.611	2.3	i
-17.0	-8.1	-1.8	2.8	O=c1c2[nH]c3ccc(F)cc3c2nc2n1CCCS2	0.691	-6.0	i
1.4	-1.8	1.6	1.8	Cc1ccnc2nc(C(=O)OCC(=O)c3ccc(Cl)cc3)nn12	0.671	0.0	i
18.7	2.8	-0.5	4.0	O=C(O)CCc1ccc(-c2ccc(Br)cc2)o1	0.698	4.5	x
-5.6	0.0	1.4	2.0	O=C(CN1CCCCCC1)Nc1ccc(Br)cc1	0.649	2.2	x
13.6	2.9	4.2	-2.3	COc1ccc(NC(=O)CSc2nnc(-c3cccs3)n2N)cc1S(N)(=O)=O	0.692	0.7	x
x	-1.3	1.3	2.7	CCc1nc2c(c(SC)nn2-c2ccccc2)c(N)c1C(=O)OC	0.726	-0.4	x
24.0	-5.2	-1.6	-2.9	CC(=O)Nc1cccc(NC(=O)CSc2nccn2Cc2ccccc2)c1	0.682	0.2	i
-21.8	7.9	-1.2	1.3	CCOc1ccccc1N1CCN(C2=C(NS(=O)(=O)c3cccs3)C(=O)c3ccccc3C2=O)CC1	0.764	1.7	x
24.6	-10.4	-1.4	4.2	Cc1cccnc1NC(=S)Nc1ncccc1C	0.655	0.7	i
-7.3	0.5	0.7	-1.0	CCC(=O)Nc1c(C)cc(C)cc1Cl	0.748	2.7	x
3.4	3.4	1.9	-5.3	Cc1cccn2c(=O)nc(SCC(=O)N3CCOCC3)nc12	0.715	-1.1	i
12.1	-5.1	-2.6	-1.9	O=C(c1ccc2c(=O)n3c(nc2c1)CCCCC3)N1CCN(c2ccc(Cl)cc2)CC1	0.763	8.5	i
-5.6	1.1	0.6	0.1	COCCN(CC(=O)Nc1cccc(C)c1C)C(=O)Cc1cccs1	0.674	3.4	i
-2.3	-4.5	1.3	-2.4	CC(=O)NNC(=O)c1sc(=S)n(C)c1C	0.689	6.4	i
1.9	-1.2	0.8	-1.6	O=C(Cn1ccc(NC(=O)OCc2ccccc2)nc1=O)NCC1CCCO1 (centres undefined)	0.695	-0.2	i
-5.0	-0.3	4.4	-3.5	Cc1ccc2cc(NC(=O)Cc3ccccc3)ccc2n1	x	x	i
x	18.6	1.7	6.3	CCOC(=O)CNC(=O)CSc1nnc(Cn2c(=O)sc3ccccc32)n1-c1ccccc1C	0.706	3.5	x

# 3 entries picked at random from the list so far, as already listed:
ALR inh	B2AR ag	HNF4A DNA FP	LANA-H2B inh	structure	Ecoli growth	UCH37 inh	FGF22 binding
-12.0	-0.8	2.7	3.9	Cc1ccc2oc(C(=O)Nc3ccc(S(=O)(=O)Nc4ncccn4)cc3)c(C)c2c1	0.731	-7.5	i
12.1	-5.1	-2.6	-1.9	O=C(c1ccc2c(=O)n3c(nc2c1)CCCCC3)N1CCN(c2ccc(Cl)cc2)CC1	0.763	8.5	i
-21.8	7.9	-1.2	1.3	CCOc1ccccc1N1CCN(C2=C(NS(=O)(=O)c3cccs3)C(=O)c3ccccc3C2=O)CC1	0.764	1.7	x

# Other entries
ALR inh	B2AR ag	HNF4A DNA FP	LANA-H2B inh	structure	Ecoli growth	UCH37 inh	FGF22 binding
x	7.6	-3.7	x	Cc1cc(O)c(C(C)C)cc1NC(=S)Nc1cc(C(C)C)c(O)cc1C	0.705	4.0	i
x	-7.1	1.9	-2.9	CC(C)(C)c1nc2c(s1)CCc1onc(-c3ccc(Cl)cc3)c1-2	0.707	1.9	i
99.3*	0.3	-0.2	2.6	O=C(CCC1N=C2c3ccccc3N=C(SCc3ccccc3Cl)N2C1=O)NCc1ccco1 (centres undefined)	0.713	-21.0	x
x	7.0	1.7	-2.0	CC(NC(=S)Nc1ccccc1C(F)(F)F)C1CC2CCC1C2 (centres undefined)	0.733	2.7	i
